Cruzain Triton = blocks cruzain activity in presence of Triton detergent; purified cruzain, Z-FR-AMC fluorescence, 0.01% Triton; Potency, µM, inactives show max response, negative = inhibition, usual class: inhibitors; actives 0.43% (n = 200,000); AID 1478;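 note: plate controls were neutral wells for no effect and buffer without enzyme for full effect; nearly all actives have a fitted effect of over 40% in size; top concentration of the series not given in the record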
Target sequence (P25779 123-467 limits assumed): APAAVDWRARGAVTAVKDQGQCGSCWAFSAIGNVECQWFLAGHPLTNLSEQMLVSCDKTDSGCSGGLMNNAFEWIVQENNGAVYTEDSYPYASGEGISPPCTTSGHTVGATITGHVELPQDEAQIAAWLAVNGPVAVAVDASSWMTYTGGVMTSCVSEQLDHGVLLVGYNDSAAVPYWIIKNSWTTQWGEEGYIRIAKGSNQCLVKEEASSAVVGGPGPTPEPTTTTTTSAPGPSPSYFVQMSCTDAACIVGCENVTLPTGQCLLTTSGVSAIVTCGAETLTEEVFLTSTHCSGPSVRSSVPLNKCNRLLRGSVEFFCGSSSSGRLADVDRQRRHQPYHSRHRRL
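Purified cruzain (1.5 nM final) was preincubated with compounds for 15 min at room temperature in 100 mM sodium acetate pH 5.5, 5 mM DTT, 0.01% Triton X-100. Reaction started with 2 uM Z-FR-AMC; AMC fluorescence change over 60 s gave activity.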
StopGo reporter = FMDV 2A StopGo reporter, luciferase signal; human cells with a luciferase reporter of 2A StopGo recoding; control for the full effect not named in the record; AID 1159524; actives 1.2% (n = 410,000); Potency, µM (top dose mostly 57.9 µM), for the others: top-dose signal change, negative = less light; active = well fitted falling curve with a large enough effect; inconclusive = small, poorly fitted or top-dose-only effect; inactive = no such curve, though single readings can be large or run the other way; tested in HEK293T cells; note: nearly all actives have a fitted effect of over 45% in size; luciferase light after 4 h
Cruzain inh noDet = cruzain (T. cruzi) inhibition without detergent; P25779; purified cruzain, Z-FR-AMC fluorescence, no detergent; Potency, µM, without a hit: max response, negative = inhibition, most hits filed as inhibitors; actives 2.3% (n = 200,000);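 note: plate controls were enzyme without inhibitor for no effect and buffer without enzyme for full effect; nearly all actives have a fitted effect of over 40% in size; top concentration of the series not given in the record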
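Detergent-free condition (0.00005% Triton X-100) in acetate buffer pH 5.5 with DTT. 1.5 nM enzyme and compound were pre-mixed 15 min, then 2 uM Z-FR-AMC substrate added; reaction progress from fluorescence change between first and third reads (60 s).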
* = called active by the depositor; ? = inconclusive; & = joins results of further samples; [ ] = remark or other dose. Unless noted, calls come from the whole dose curve; as a rule, active = well fitted curve in the direction sought with a large enough effect; inconclusive = small, poorly fitted or top-dose-only effect, or another doubt; inactive = no such curve, though single readings can be large; an effect the other way counts as inactive or inconclusive. Unless noted, % is set by controls: 0 for no effect and ±100 for the full control effect; potency is the fitted concentration of half-maximal effect. Some of the compounds tested; count on the stated rates, not on these rows.

Preview (two entries):
| Molecule | Cruzain Triton | StopGo reporter | Cruzain inh noDet |
| --- | --- | --- | --- |
| CN(C)c1ncnc2ccc(-c3cccc(C#N)c3)cc12 | -7.0% | -12% | -11% |
| CN(C)Cc1ccccc1-c1cncnc1NCc1cccs1 | 1.0% | -15% | 2% |

This part in full, repeating the preview:
| Molecule | Cruzain Triton | StopGo reporter | Cruzain inh noDet |
| --- | --- | --- | --- |
| CN(C)c1ncnc2ccc(-c3cccc(C#N)c3)cc12 | -7.0% | -12% | -11% |
| CN(C)Cc1ccccc1-c1cncnc1NCc1cccs1 | 1.0% | -15% | 2% |
| CC(N)C(O)c1cccc(O)c1 (stereo not drawn) | 5.4% | -11% | -9% |
| CC(=O)N1CCC[C@@]2(CCN(C(=O)Nc3cccc(C#N)c3)C2)C1 | 3.8% | -11% | 4% |
| COc1ccc(C(=O)N2CCC[C@@]3(CCN(Cc4cc(C(F)(F)F)cc(C(F)(F)F)c4)C3)C2)cc1 | -2.5% | -20% | 14% |
| CC(C)=CCC1=C(O)c2ccccc2C(=O)C1=O | -5.2%&-5.8% | -4%&0% | -6%&-8% |
| O=c1c(-c2ccc(Cl)cc2)nc2cnc(Nc3ccccc3)nc2n1C1CC1 | 2.0% | -9% | -4% |
| COc1ccc(NC(=O)N2CCCC3(CCN(C(=O)c4ccc(OC)cc4)CC3)C2)cc1 | -0.1% | -6% | 7% |
| COCC(=O)N1CCC2(CCN(Cc3ccc(C#N)cc3)CC2)CC1 | 3.3% | -12% | 1% |
| Cc1ccccc1-c1nccc(NCCN2CCOCC2)n1 | 0.3% | 8% | -1% |
| O=C(c1ccco1)N1CCC2(CC1)CN(C(c1ccccc1)c1ccccc1)C2 | -2.0% | -15% | 3% |
| C[C@@H]1CC[C@@]2(OC1)OC1CC3C4CC=C5CC(O)CCC5(C)C4CCC3(C)C1[C@@H]2C (stereo partly drawn) | -0.3% | -9% | 2% |

Four entries from above, with values under each structure:
Every second line gives: Cruzain Triton | StopGo reporter | Cruzain inh noDet
- O=c1c(-c2ccc(Cl)cc2)nc2cnc(Nc3ccccc3)nc2n1C1CC1
  2.0% | -9% | -4%
- COc1ccc(NC(=O)N2CCCC3(CCN(C(=O)c4ccc(OC)cc4)CC3)C2)cc1
  -0.1% | -6% | 7%
- COCC(=O)N1CCC2(CCN(Cc3ccc(C#N)cc3)CC2)CC1
  3.3% | -12% | 1%
- Cc1ccccc1-c1nccc(NCCN2CCOCC2)n1
  0.3% | 8% | -1%

Full records from above.
Profile of `CC(=O)N1CCC[C@@]2(CCN(C(=O)Nc3cccc(C#N)c3)C2)C1` : Cruzain Triton: 3.8%; StopGo reporter: -11%; Cruzain inh noDet: 4%
Profile of `COCC(=O)N1CCC2(CCN(Cc3ccc(C#N)cc3)CC2)CC1` : Cruzain Triton: 3.3%; StopGo reporter: -12%; Cruzain inh noDet: 1%
Profile of `CN(C)Cc1ccccc1-c1cncnc1NCc1cccs1` : Cruzain Triton: 1.0%; StopGo reporter: -15%; Cruzain inh noDet: 2%

Next records follow.
| Molecule | Cruzain Triton | StopGo reporter | Cruzain inh noDet |
| --- | --- | --- | --- |
| CNC(=O)O/N=C(/C)SC | 1.8% | 3% | 1% |
| O=C(c1csnn1)N1CCC2(CC1)CN(c1ncccn1)C2 | -0.4% | -2% | -9% |
| CN(C)c1ccc(-c2nccc(NCc3ccccc3)n2)cc1 | -10% | -10% | -5% |
| COc1ccc(-n2c(=O)c(-c3cc(F)cc(F)c3)nc3cncnc32)cc1 | -0.8% | -6% | -10% |
| COc1cc(OC)c2c(=O)c(-c3ccccc3)coc2c1 | -7.6% | 22% | -12% |
| C=CCN1C[C@H](C)N([C@@H](c2ccccc2)c2ccc(C(=O)N(CC)CC)cc2)C[C@H]1C | 1.6% | -3% | -1% |
| COc1ccc2[nH]cc(CCNc3ncncc3-c3cccnc3)c2c1 | 4.3% | -21% | 3% |
| CC(C)NC(=O)N1CC[C@@]2(CCCN(C(=O)c3cccc(F)c3)C2)C1 | -2.4% | 3% | -1% |
| CC(=O)OC[C@@]1(O)C[C@@]23CC[C@@H]4c5ccoc5CC[C@@]4(C)[C@@H]2CCC1C3 | 0.6% | 0% | ? |
| Cn1cc(-c2nc3cnc(N4CCNCC4)nc3n(CCc3ccccc3)c2=O)c2ccccc21 | -2.8% | -24% | -5% |
| COc1cc2c(cc1OC)C(c1ccc(N)cc1)=NNC(=O)C2 | -2.2% | 3%&-13% | 2% |
| CCCCCCCCCCCCCC(=O)O[C@H](CC(=O)O)C[N+](C)(C)C | -2.7% | -6% | ? |

Next records follow:
| Molecule | Cruzain Triton | StopGo reporter | Cruzain inh noDet |
| --- | --- | --- | --- |
| Cc1cccc(CNc2nc(-c3c(C)noc3C)nc3ccccc23)c1 | 9.5% | ? | 2% |
| Cc1noc(C)c1C(=O)N1CCC2(CCCN(c3ncccn3)C2)CC1 | 1.5% | -11% | -21% |
| Nc1ncnc2c1nc(Cl)n2C1OC(CO)C(O)C1O (stereo not drawn) | -0.3% | ? | -6% |
| O=C1C(c2ccccn2)=[N+]([O-])c2ccccc21 | -4.2% | 17% | -4% |
| O=C(c1csnn1)N1CCC[C@@]2(CCN(Cc3ccccc3)C2)C1 | -5.0% | -2% | -6% |
| Cc1cccc(CNc2cc(-c3c(C)noc3C)ncn2)c1 | 0.5% | -16% | 0% |
| Nc1nc(NCC2CCC(CNS(=O)(=O)c3cccc4ccccc34)CC2)nc2ccccc12 (stereo not drawn) | -7.2% | ? | ? |
| COc1cccc(-c2ccc3ncnc(NCCNC(C)=O)c3c2)c1 | -6.4% | -13% | 3% |
| COCCn1c(=O)c(-c2ccc(F)cc2)nc2cnc(Nc3cccc(OC)c3)nc21 | 0.5% | 12% | 6% |
| COC(=O)COc1cc(Cl)c(Cl)cc1Cl | -1.5% | 38%[activator] | -4% |
| FC(F)(F)c1cc(CN2CCCC3(CCNCC3)C2)cc(C(F)(F)F)c1 | 1.9% | -13% | 5% |
| COc1ccc(-c2nc3cnc(N4CCN(C)CC4)nc3n(Cc3ccc(F)cc3)c2=O)cc1 | -1.4% | -13% | 5% |

Next part:
| Molecule | Cruzain Triton | StopGo reporter | Cruzain inh noDet |
| --- | --- | --- | --- |
| CN(C)C(=O)c1ccc(-c2nc(N3CCOCC3)c3ccccc3n2)cc1 | 3.5% | 14% | 3% |
| N#Cc1cccc(-c2nc3cnc(Nc4ccccc4)nc3n(C[C@H]3CCCO3)c2=O)c1 | 4.8% | -1% | -6% |
| CC(C)C1=CC2=CCC3[C@@](C)(CCC[C@@]3(C)C(=O)O)C2CC1 (stereo partly drawn) | -11% | 10% | 2% |
| CN(C)c1ncc2nc(-c3cc(F)cc(F)c3)c(=O)n(C[C@H]3CCCO3)c2n1 | 1.8% | 0% | 10% |
| CC(C)CN1CCCC2(CCN(C(=O)c3cccn3C)CC2)C1 | -4.7% | -16% | 10% |
| Cn1c(=O)c(-c2ccc(F)c(F)c2)nc2cncnc21 | -0.6% | -7% | -14% |
| COCCn1c(=O)c(-c2ccc(F)c(F)c2)nc2cncnc21 | -2.3% | -1% | -3% |
| COc1ncc2ncc(=O)n(CCc3ccccc3)c2n1 | 0.7% | -22% | 2% |
| O=C(c1ccccc1)[C@@H]1O[C@H]1c1ccc(-c2ccccc2)cc1 | -0.6% | 29% | 0% |
| O=C(O[C@@H]1Cc2c(O)cc(O)cc2OC1c1ccc(O)c(O)c1)c1cc(O)c(O)c(O)c1 (stereo partly drawn) | -8.0% | 5% | -17% |
| COc1ccc(-n2[nH]c3c4c(ncc3c2=O)CCCCC4)cc1 | -1.1% | -15% | -8% |
| CN(C)C(=O)c1ccc(-c2nccc(Nc3ccc(F)cc3)n2)cc1 | 0.0% | -9% | 8% |

Continued.
| Molecule | Cruzain Triton | StopGo reporter | Cruzain inh noDet |
| --- | --- | --- | --- |
| CC(C)CN1CC2(CCN(C(=O)c3cccc(F)c3)CC2)C1 | -2.5% | 12% | 0% |
| CCNc1ncc2nc(-c3ccc(F)cc3)c(=O)n(-c3ccccc3)c2n1 | 3.0% | ? | 16% |
| Cc1c(-c2ccc(O)cc2)nn(-c2ccc(O)cc2)c1-c1ccc(OCCN2CCCCC2)cc1 | -0.3% | 0% | 0% |
| N#Cc1cccc(-c2cncnc2NCCc2cnc[nH]2)c1 | 2.7% | -12% | 1% |
| COc1ccccc1CNc1nc(-c2c(C)noc2C)nc2ccccc12 | -5.0% | -11% | 10% |
| CCNc1ncc2ncc(=O)n(C[C@H]3CCCO3)c2n1 | -15% | -16% | -14% |
| COC1C(O)C(OC2CC[C@]3(C=O)C4C(OC(C)=O)C[C@@]5(C)C(C6=CC(=O)OC6)CC[C@]5(O)C4CC[C@]3(O)C2)OC(C)C1OC(C)=O (stereo partly drawn) | -1.2% | -8% | ? |
| COC(=O)N1CCC2(CCN(Cc3cc(C(F)(F)F)cc(C(F)(F)F)c3)CC2)CC1 | 5.2% | -19% | 16% |
| COc1ccc(-c2nc3cnc(N4CCN(C)CC4)nc3n(C)c2=O)cc1 | -0.7% | 26% | -17% |
| CC1=CC(=O)C2=C(C)C[C@H](OC(=O)Cc3ccccc3)C3[C@H](OC(=O)[C@H]3C)C12 (stereo partly drawn) | ? | -20% | ? |
| CC(=O)OC1CC[C@]2(C)C(=CCC3C4CCC(C(C)CCCC(C)C)[C@]4(C)CCC32)C1 (stereo partly drawn) | 2.2% | -1% | 0% |
| C#CCCCCCCCCCCCCCCCC(=O)O | 2.4%&-3.9% | -7%[6.7 µM] | 1%&11% |

Other entries follow.
| Molecule | Cruzain Triton | StopGo reporter | Cruzain inh noDet |
| --- | --- | --- | --- |
| COC(=O)N1CCC2(CCCN(c3ccncc3)C2)CC1 | 1.7% | -10% | -10% |
| c1ccc2c(Cc3c[nH]c4ccccc34)c[nH]c2c1 | 2.3%&-6.6% | 19% | -11%&2% |
| O=C(Oc1ccccc1)N1CCC2(CCN(Cc3ccncc3)CC2)CC1 | 1.0% | -16% | 0% |
| COc1cccc(Cn2c(=O)c(C)nc3cnc(N(C)C)nc32)c1 | -3.4% | -9% | ? |
| Cn1cccc1C(=O)N1CCC[C@@]2(CCN(c3ccccn3)C2)C1 | 3.4% | -16% | 6% |
| COc1ccc(Oc2ncc3nc(-c4cc(F)cc(F)c4)c(=O)n(CCC#N)c3n2)cc1 | -2.9% | -30% | -13% |
| CON | 1.3% | 0% | 8% |
| COc1ccccc1-c1coc2cc(O)ccc2c1=O | 2.5% | 10% | -25% |
| COc1cccc(CCc2ccccc2OCC[C@@H]2C[C@@H](O)CN2C)c1 | -3.3% | -20% | -1% |
| N#CCCn1c(=O)c(-c2ccc(F)cc2)nc2cnc(Oc3ccccc3)nc21 | 1.5% | -3% | 10% |
| CC(=O)OC1CC[C@@]2(C)C(CC[C@@]3(C)C2CC=C2C4CC(C)(C)CC[C@]4(C)CC[C@@]23C)C1(C)C (stereo partly drawn) | 8.4% | -12% | -2% |
| COc1ccc2[nH]cc(CCNc3ccnc(-c4c(C)noc4C)n3)c2c1 | -5.4% | ? | -8% |

(listing goes on)
| Molecule | Cruzain Triton | StopGo reporter | Cruzain inh noDet |
| --- | --- | --- | --- |
| COc1ncc2nc(-c3ccc(Cl)cc3)c(=O)n(C[C@H]3CCCO3)c2n1 | 0.5% | -12% | 20% |
| COCCNc1ncnc2ccc(-c3c(C)noc3C)cc12 | 7.0% | 2% | 11% |
| COc1ccc2c(c1)[C@]1(C)CCC(=O)C[C@H]1CC2 | 1.7% | -6% | 0% |
| CCOC(=O)C1=C(N)Oc2ccc(Br)cc2[C@@H]1[C@@H](C#N)C(=O)OCC | 1.6% | -8% | -10% |
| CCOC(=O)c1ncn2c1CN(C)C(=O)c1cc(N=[N+]=[N-])ccc1-2 | -1.2% | -13% | 0% |
| CCNc1ncc2nc(-c3cn(C)c4ccccc34)c(=O)n(Cc3ccc(F)cc3)c2n1 | 6.1% | -5% | -13% |
| COc1ccccc1CN1CC[C@@]2(CCCN(S(C)(=O)=O)C2)C1 | -2.7% | 3% | -7% |
| Cc1ccc(C(=O)Cn2c3c(sc2=N)CCCC3)cc1 | -4.2% | ? | 7% |

Assay outcomes (PubChem BioAssay)
